NS1 inh – influenza NS1 inhibition; S. cerevisiae slowed by influenza A NS1, growth recovery by OD600; Potency, µM (top dose mostly 46.1 µM), inactives show top-dose activity, positive = more growth; hit rate 0.4% among 270,000; active means well fitted rising curve with a large enough effect; inconclusive means small, poorly fitted or top-dose-only effect; inactive means no such curve, though single readings can be large or run the other way; note: nearly all actives have a fitted effect of over 50% in size
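A cell-based growth assay was used: compounds that relieve NS1-induced slow growth of budding yeast raise OD600. Assay medium was yeast nitrogen base with ammonium sulphate and -URA supplement, pH 6.0, with 2% galactose.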
Cruzain Triton – cruzain (T. cruzi) inhibition with detergent; P25779; purified cruzain, Z-FR-AMC fluorescence, 0.01% Triton; Potency, µM, inactives show max response, negative = inhibition, most hits filed as inhibitors; hit rate 0.43% among 200,000; AID 1478;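 note: plate controls were neutral wells for no effect and buffer without enzyme for full effect; nearly all actives have a fitted effect of over 40% in size; top concentration of the series not given in the record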
Target sequence (P25779 123-467 limits assumed): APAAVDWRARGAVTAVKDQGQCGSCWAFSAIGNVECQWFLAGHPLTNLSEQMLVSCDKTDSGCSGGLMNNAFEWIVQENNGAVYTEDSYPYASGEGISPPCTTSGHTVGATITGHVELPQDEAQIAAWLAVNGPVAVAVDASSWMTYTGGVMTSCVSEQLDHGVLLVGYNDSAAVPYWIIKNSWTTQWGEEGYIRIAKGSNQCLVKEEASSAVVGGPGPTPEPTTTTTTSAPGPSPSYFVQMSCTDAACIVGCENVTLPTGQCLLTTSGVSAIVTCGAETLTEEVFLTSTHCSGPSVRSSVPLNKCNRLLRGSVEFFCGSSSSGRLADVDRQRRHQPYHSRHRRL
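15 min RT preincubation of 1.5 nM cruzain with compound, then 2 uM Z-FR-AMC added; kinetic AMC fluorescence, 60 s delta. Triton X-100 0.01%, pH 5.5.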
Cruzain inh noDet – inhibitors of Trypanosoma cruzi cruzain without detergent. P25779. purified cruzain, Z-FR-AMC fluorescence, no detergent. Potency, µM, for the others: max response, negative = inhibition, actives largely listed as inhibitors. hit rate 2.3% among 200,000;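 note: plate controls were enzyme without inhibitor for no effect and buffer without enzyme for full effect; nearly all actives have a fitted effect of over 40% in size; top concentration of the series not given in the record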
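Detergent-free condition (0.00005% Triton X-100) in acetate buffer pH 5.5 with DTT. 1.5 nM enzyme and compound were pre-mixed 15 min, then 2 uM Z-FR-AMC substrate added; reaction progress from fluorescence change between first and third reads (60 s).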
SARS PLpro yeast – blocks SARS-CoV papain-like protease in a yeast assay; hit rate 0.19% among 330,000; AID 485353; S. cerevisiae expressing SARS-CoV PLpro, growth rescue; control for the full effect not named in the record; Potency, µM (top dose mostly 32.9 µM), for the others: at the top dose activity, positive = growth rescue; active means well fitted rising curve with a large enough effect; inconclusive means small, poorly fitted or top-dose-only effect; inactive means no such curve, though single readings can be large or run the other way; note: 0% is about no effect; nearly all actives have a fitted effect of over 55% in size; growth read by luminescence after 48 h
RE007 growth inh – less growth of the S. pombe RE007 Vpr strain; S. pombe RE007 Vpr strain, BacTiter-Glo ATP luminescence, 24 h; control for the full effect not named in the record; Potency, µM (series often up to 92.2 µM), for inactives: at the top dose activity change, negative = less growth; hit rate 0.21% among 360,000; AID 651644; active = well fitted falling curve with a large enough effect; inconclusive = small, poorly fitted or top-dose-only effect; inactive = no such curve, though single readings can be large or run the other way;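 note: % is set by controls: 0 for no effect and ±100 for the full control effect; nearly all actives have a fitted effect of over 50% in size; the assay follows cell death caused by Vpr and the record does not say whether a fall means rescue or toxicity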
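Fission yeast strain RE007, carrying one chromosomally integrated HIV-1 vpr copy, was seeded at OD 0.01 in PMG+AL medium with 23 nL pinned compound. After 24 h at 30 °C and 99% humidity, viability was read by BacTiter-Glo luminescence.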
StopGo reporter – lowers the luciferase signal of an FMDV 2A StopGo reporter. human cells with a luciferase reporter of 2A StopGo recoding; control for the full effect not named in the record. hit rate 1.2% among 410,000. Potency, µM (highest dose often 57.9 µM), for inactives: at the highest dose signal change, negative = less light; active = well fitted falling curve with a large enough effect; inconclusive = small, poorly fitted or top-dose-only effect; inactive = no such curve, though single readings can be large or run the other way; tested in HEK293T cells; note: % is set by controls: 0 for no effect and ±100 for the full control effect; nearly all actives have a fitted effect of over 45% in size; luciferase light after 4 h
MARV entry inh – blocks Marburg virus binding to or entry into cells; Potency, µM (series often up to 37.8 µM), for the others: at the highest dose activity change, negative = inhibition, most hits filed as inhibitors; hit rate 1.8% among 300,000; Marburg virus pseudotyped entry inhibition, cell reporter; control for the full effect not named in the record; about a third of the inactives were read at about 46 µM; active = well fitted inhibition curve with a large enough effect; inconclusive = small, poorly fitted or top-dose-only effect, or effect the other way; inactive = flat fitted curve, though single readings scatter; tested in HEK293 cells; about a fifth of its hits are not listed in these tables; note: % is set by controls: 0 for no effect and ±100 for the full control effect; luciferase read-out
Lassa entry inh – Lassa virus entry inhibition; Lassa virus pseudotype entry inhibition, cell reporter; control for the full effect not named in the record; Potency, µM (top dose mostly 37.9 µM), without a hit: at the highest dose activity change, negative = inhibition, actives largely listed as inhibitors; hit rate 1.2% among 300,000; active means well fitted inhibition curve with a large enough effect; inconclusive means small, poorly fitted or top-dose-only effect, or effect the other way; inactive means flat fitted curve, though single readings scatter; tested in HEK293 cells; note: % is set by controls: 0 for no effect and ±100 for the full control effect; nearly all actives have a fitted effect of over 50% in size; luciferase read-out
Starred values were filed as active, the others as inactive; u = inconclusive; x = not tested or not shown; & = joins results of further samples; ! = a repeat was not active; [ ] = remark or other dose. Unless noted, calls come from the whole dose curve; as a rule, active = well fitted curve in the direction sought with a large enough effect; inconclusive = small, poorly fitted or top-dose-only effect, or another doubt; inactive = no such curve, though single readings can be large; an effect the other way counts as inactive or inconclusive. Potency is the fitted concentration of half-maximal effect. Random draw from the library. Share with any hit: about 4.6%.

SMILES	NS1 inh	Cruzain Triton	Cruzain inh noDet	SARS PLpro yeast	RE007 growth inh	StopGo reporter	MARV entry inh	Lassa entry inh
Cc1nnc(NCCc2ccccc2)n(N)c1=O	6.2%	-1.7%	-1.6%	0.7%	-3.8%	-14.0%	5.6%	7.1%
S=c1nc(C2CC2)n(-c2ccccc2)[nH]1	-4.4%	x	x	-2.1%	6.7%	-0.3%	3.0%[46.1 µM]	-3.4%[46.1 µM]
COc1ccccc1OC(=O)c1ccc2nsnc2c1	-1.4%	-0.6%	-18.7%	-11.0%	-23.0%	-1.2%	23.2%	4.0%
Cn1c(CN2CCCCC2)nc2cc(NC(=O)c3ccc(Cl)cc3)ccc21	-13.8%	-1.5%&-2.4%	-2.8%&-13.8%	-3.8%	-1.0%	17.8µM*!	20.6µM*	18.5%[46.1 µM]
CC(=O)N(Cc1cc2c(C)cc(C)cc2[nH]c1=O)C1CCCCC1	0.1%	1.9%	-4.8%	-7.1%	-1.9%	-19.2%	u	-22.2%
O=C(Nc1nc(-c2ccccc2)ns1)c1cccs1	-87.1%	-11.0%	-7.7%	-35.9%	u	42.0%[activator]	-11.6%	0.2%
Cc1ccc(NC(=O)Cn2cnc3sc(C)c(S(=O)(=O)N4CCN(c5ncccn5)CC4)c3c2=O)cc1F	x	-3.5%	22.8%	x	x	-25.7%	30.2%[46.1 µM]	-6.1%[46.1 µM]
CCCCOC(=O)c1c(C)oc2ccc(NS(=O)(=O)c3ccc(F)cc3C)cc12	x	-5.1%	-14.4%	x	x	-8.6%	-10.0%[46.1 µM]	17.3%[46.1 µM]
COc1ccccc1NC(=O)CSc1n[nH]c(-c2cccnc2)n1	6.3%	x	x	9.7%	8.0%	-22.7%	3.7%[46.1 µM]	-4.1%
O=C(NC(=O)c1ccc(Cl)cc1)Nc1cc(N2CCCCC2)ncn1	6.9%	x	x	x	16.6%	0.3%	7.0%[46.1 µM]	13.7%
Cc1ccc(CCNC(=O)CN(c2ccc(C)cc2)S(=O)(=O)N(C)C)cc1	x	-1.5%	16.9%	x	x	-17.8%	-37.1%[46.1 µM]	-9.8%[46.1 µM]
COc1ccc(NC(=O)CSc2nnc(Cn3cnc([N+](=O)[O-])n3)n2C)cc1	-3.5%	0.4%	2.9%	-3.2%	-18.4%	-0.8%	13.4%	-2.3%
COCCNC(=S)NC1CC2CCC(C1)N2Cc1ccccc1 (stereo not drawn)	4.4%	x	x	0.6%	-12.0%	-5.1%	x	9.3%
Cc1cc2occ(CC(=O)N(C)CC(=O)Nc3cccc(F)c3)c2cc1C	-37.0%	x	x	x	-15.0%	-14.9%	u	3.5%
CC(C)N1CCc2c(sc(NC(=O)c3ccc(S(=O)(=O)N4CCOCC4)cc3)c2C#N)C1	-8.1%	-6.5%	-12.7%	1.6%	11.5%	-10.6%	3.8%	x
CCN(CC)C(=O)Cn1cnc2ccccc2c1=O	5.4%	0.8%	22.6%	8.5%	-17.3%	-13.2%	-15.9%	-2.7%
CCCNC(=O)CC1C(=O)N(Cc2ccccc2)C(C)c2nc3ccccc3n21 (stereo not drawn)	-2.7%	-7.5%	u	-0.4%	-11.1%	1.8%	u	-5.8%
O=C(C1CCN(C2CC(=O)N(Cc3ccccc3)C2=O)CC1)N1CCCCCC1 (stereo not drawn)	-68.5%	3.7%	u	-34.1%	u	-15.3%	-0.9%	u
Cc1ccc(C(=O)Nc2ccc(N3CCN(C(=O)c4cccs4)CC3)cc2)c(Cl)c1	16.3%	x	x	-0.8%	-25.3%	-23.7%	u	u
Cc1ccc(C)c(N2CCN(S(=O)(=O)c3c(C)noc3C)CC2)c1	-23.8%	x	x	-10.7%	-1.6%	-17.0%	x	x
COc1ccc(NC(=O)CCCCCn2nnc3ccccc3c2=O)cc1	-6.0%	x	x	0.9%	0.0%	-6.6%	17.8%[46.1 µM]	2.9%[46.1 µM]
CCOC(=O)c1ccc(Nc2nc(C)cc(C)n2)cc1	0.3%	-2.7%	-2.2%	-2.2%	-3.4%	46.1%&36.3%[activator]	-1.0%[46.1 µM]	u
CC1=NN(C(N)=S)C(=O)C1N=Nc1cccc([N+](=O)[O-])c1 (stereo not drawn)	-3.1%	x	x	-0.2%	22.0%	52.7%[activator]	x	x
C(=N\Nc1nc(-c2cccnc2)nc2ccccc12)/c1ccccc1	12.5%	x	x	7.1%	-8.0%	-2.6%	0.3%[46.1 µM]	2.9%
CSc1ccc(CNCc2ccc3c(c2)OCO3)cc1	0.7%	x	x	-0.1%	8.5%	0.0%	1.2%	x

Remaining list, next part.
SMILES	NS1 inh	Cruzain Triton	Cruzain inh noDet	SARS PLpro yeast	RE007 growth inh	StopGo reporter	MARV entry inh	Lassa entry inh
CC/C(=N/NC(=O)c1ccc(Br)cc1)c1ccc(OCCN2CCOCC2)cc1	3.2%	-3.8%	-1.1%	5.9%	-12.7%	1.2%	u	6.9%
Nc1cccc(NC(=O)c2cccs2)c1	4.8%	4.3%	3.5%	-1.2%	2.8%	51.6%[activator]	9.2%	-20.3%
COc1ccccc1CNC(=O)CN(C)CC(=O)Nc1cccc(F)c1	-7.5%	1.8%	21.3%	-5.8%	16.5%	-29.5%	-24.4%	-19.6%
CCC(=O)Nc1sc2c(c1C(=O)Nc1cccc(C)c1)CCCC2	x	-3.8%	9.7%	x	x	-19.3%	x	17.5%[46.1 µM]
COc1cccc(N2C(=NC(=O)c3ccccc3)SC3CS(=O)(=O)CC32)c1 (stereo not drawn)	15.9%	x	x	0.7%	1.8%	-9.6%	1.3%[46.1 µM]	x
CC(=O)c1ccc(N2CCN(c3nc4c(S(=O)(=O)c5ccccc5)nnn4c4ccc(Cl)cc34)CC2)cc1	x	0.5%	0.8%	x	x	19.7%	u	x
CCN1CCN(C(=O)c2cc3c(=O)n4ccccc4nc3s2)CC1	11.8%	x	x	-1.1%	-1.9%	18.9%	9.2%[46.1 µM]	17.7%[46.1 µM]
Cn1c(SCC(=O)NCC2CCCO2)nc2c(c1=O)SCC2 (stereo not drawn)	8.5%	x	x	-1.3%	-12.8%	-8.7%	13.9%	0.3%
COC(=O)C(NC(=O)C(C)Oc1ccccc1)C(C)C (stereo not drawn)	-1.4%	6.4%	15.2%	1.8%	-2.1%	4.0%	7.2%	1.0%
O=[N+]([O-])c1ccc(-c2nnc3cccc(Cl)n23)cc1	-3.0%	x	x	0.5%	-2.2%	-6.1%	3.2%[46.1 µM]	2.8%[46.1 µM]
COC(=O)Oc1c(Br)c(=O)oc2ccccc12	-47.0%	x	x	x	-7.1%	-15.5%	-4.1%	-11.6%
Cc1ccc(O)c(NC(=O)c2ccco2)c1	-40.8%	-2.2%	-19.4%	-11.4%	u	19.5%	10.6%[46.1 µM]	u
O=C(CNC(=O)C1CCCCC1)NNC(=O)c1ccc(Cl)cc1Cl	8.8%	x	x	-0.6%	5.1%	-4.5%	22.4%	u
Cc1cc(C(=O)Nc2ccccc2)oc1C	-25.5%	4.0%	-4.6%	-6.3%	-18.9%	24.0%	u	u
COc1ccc(Cl)cc1NCCC(O)c1ccc(F)cc1 (stereo not drawn)	-9.1%	x	x	-7.0%	-7.4%	-24.7%	x	x
N/C(=N\OS(=O)(=O)c1ccccc1)c1ccncc1	-3.4%	-2.2%	-15.7%	0.6%	-3.3%	17.2%	-3.1%	-21.7%
CCCN(CCO)Cc1ccc(Cl)c(Cl)c1	0.1%	3.0%	-5.4%	2.6%	-1.5%	11.4%	-1.1%	-38.0%[14.3 µM]
Cc1cccc(/C(N)=N/OC(=O)c2cccnc2)c1	-4.7%	x	x	0.4%	-14.9%	27.4%	x	x
CC(C)(C)N1NC2(CCCCC2)NC1=S	0.7%	x	x	2.7%	0.4%	-0.9%	u	10.7%
CCOc1ccccc1NC(=O)COn1nnc2ccc(Cl)cc21	-33.7%	-3.5%	-13.4%	-9.8%	-17.0%	0.0%	-4.5%	10.2%
O=C(NCC1CCCO1)C1CCC(=O)N1CCc1ccccc1 (stereo not drawn)	-0.6%	1.1%	2.1%	6.3%	7.3%	-2.2%	7.3%	-1.3%
CCCC1C(C#N)=C(N)Oc2c1c(=O)oc1ccccc21 (stereo not drawn)	12.3%	-1.5%	u	10.6%	-11.4%	-2.2%	8.6%	-5.1%
O=C(COc1ccc(Cl)cc1)N1CCN(C(=O)c2cccc(F)c2)CC1	-15.7%	1.1%	4.7%	-3.8%	-5.7%	-24.1%	-8.6%	1.3%
C/C(CC(=O)Nc1cccc(C(F)(F)F)c1)=N\NC(=O)Cc1ccccc1	x	x	x	-1.2%	19.4%	1.4%	u	x
Cc1ccc(NC(=O)N(CCCN2CCOCC2)Cc2cccs2)cc1C	3.6%	5.1%	-15.2%	2.2%	2.0%	-6.4%	x	x

New compounds follow.
SMILES	NS1 inh	Cruzain Triton	Cruzain inh noDet	SARS PLpro yeast	RE007 growth inh	StopGo reporter	MARV entry inh	Lassa entry inh
COC(=O)C1(CCSC)NC(c2ccccc2F)C2C(=O)N(c3ccc4c(c3)OCCO4)C(=O)C21 (stereo not drawn)	x	x	x	5.8%	-8.2%	0.7%	u	-21.8%[46.1 µM]
Cc1cccc(COc2ccc(-c3cc(C(F)(F)F)n4nc(C)cc4n3)cc2)c1	x	-1.0%	1.6%	x	x	9.6%	u	8.0%[46.1 µM]
C/C(=N\NC(=O)c1c(C)nc2ccccn12)c1ccc(C(C)(C)C)cc1	0.3%	x	x	-2.7%	-13.1%	13.1%	-4.0%[46.1 µM]	u
CS(=O)(=O)N(Cc1ccc(C(=O)NN=C2CCCC2)cc1)c1ccccc1	18.5%	-2.4%	1.3%	10.3%	x	-17.3%	1.9%	0.5%
CCOc1ccc(CCNC(=O)COC(=O)c2nccnc2N)cc1OCC	x	x	x	x	14.4%	-15.4%	u	u
CCCNC(=O)c1ccc(N2CCC3(CC2)CC(c2ccccc2)=NO3)c(N)c1	19.0%	x	x	-0.1%	12.2%	u	x	x
Cn1cc(CN2CCCC(C(=O)c3ccc(-c4ccccc4)c(F)c3)C2)cn1 (stereo not drawn)	0.7%	x	x	-0.9%	1.6%	-24.6%	u	-21.0%
O=C(Nc1ccc([N+](=O)[O-])cc1)C1COc2ccccc2O1 (stereo not drawn)	-7.3%	x	x	1.4%	-21.4%	4.9%	u	u
COc1ccc2[nH]c3c(N4CC(C)OC(C)C4)ncnc3c2c1 (stereo not drawn)	-9.0%	-5.3%	5.0%	0.5%	-14.7%	-19.1%	-29.3%	10.5%

Screens deposited in PubChem by National Center for Advancing Translational Sciences (NCATS).
